Vaccinia stage: blocks a specific stage of Vaccinia orthopoxvirus infection, primary screen, cell-based, single point. Vaccinia-infected cells, mCherry/Venus stage reporter fluorescence; stronger effect = lower value; some inactives read as strong as hits. activity change (mCherry), % (no concentration beside the values). actives 0.01% (n = 89,000);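 active means mCherry past -33% and 40 or more points under the early reporter, replicates agreeing; inconclusive means past -33% without that gap or agreement; tested in A549 cells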;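 further: scaled between vehicle wells and reference inhibitor wells; 23 nL library stock went into each well; one replicate is shown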
Vaccinia stage Venus: recorded beside Vaccinia stage, whose call it bears; activity change (Venus), %; measured here: Venus reporter, other viral stage;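 negative = less Venus signal; first of two replicates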
Numbers without * were called inactive; & = joins results of further samples.

Start of the listing, in advance (5 entries):
Results for CC(C)NC(=O)N1C[C@H]2[C@@H](c3ccccc31)[C@H](CO)N2C(=O)Nc1cccc(F)c1 ?
Vaccinia stage: 11; Vaccinia stage Venus: 9

How did COc1ccc(CN(C)C[C@@H]2OCCCC[C@@H](C)Oc3ccc(NC(=O)c4ccncc4)cc3C(=O)N([C@H](C)CO)C[C@@H]2C)cc1 do in these assays?
Vaccinia stage: 0; Vaccinia stage Venus: -4

Results for COc1ccc2c3c([nH]c2c1)[C@H](CO)N(C(=O)CN(C)C)CC31CCN(CC2CCCC2)CC1 ?
Vaccinia stage: -34; Vaccinia stage Venus: -19

Results for CC(C)NC(=O)N(C)C[C@H]1Oc2ccc(NC(=O)Nc3ccc(F)cc3)cc2C(=O)N([C@@H](C)CO)C[C@H]1C ?
Vaccinia stage: 10; Vaccinia stage Venus: 5

What do the screens show for `CNC[C@@H]1Oc2cc(C#Cc3ccccc3)ccc2S(=O)(=O)N([C@H](C)CO)C[C@H]1C`?
Vaccinia stage: inconclusive

Results, from the start:
Results for CC(C)NC(=O)N1C[C@H]2[C@@H](c3ccccc31)[C@H](CO)N2C(=O)Nc1cccc(F)c1 ?
Vaccinia stage: 11; Vaccinia stage Venus: 9

How did COc1ccc(CN(C)C[C@@H]2OCCCC[C@@H](C)Oc3ccc(NC(=O)c4ccncc4)cc3C(=O)N([C@H](C)CO)C[C@@H]2C)cc1 do in these assays?
Vaccinia stage: 0; Vaccinia stage Venus: -4

Results for COc1ccc2c3c([nH]c2c1)[C@H](CO)N(C(=O)CN(C)C)CC31CCN(CC2CCCC2)CC1 ?
Vaccinia stage: -34; Vaccinia stage Venus: -19

Results for CC(C)NC(=O)N(C)C[C@H]1Oc2ccc(NC(=O)Nc3ccc(F)cc3)cc2C(=O)N([C@@H](C)CO)C[C@H]1C ?
Vaccinia stage: 10; Vaccinia stage Venus: 5

What do the screens show for `CNC[C@@H]1Oc2cc(C#Cc3ccccc3)ccc2S(=O)(=O)N([C@H](C)CO)C[C@H]1C`?
Vaccinia stage: inconclusive

Results for CC(C)NC(=O)Nc1ccc2c(c1)C(=O)N([C@@H](C)CO)C[C@H](C)[C@@H](CN(C)S(=O)(=O)c1ccc(Cl)cc1)OCCCC[C@@H](C)O2 ?
Vaccinia stage: -31; Vaccinia stage Venus: -23

Results for C[C@@H]1CN([C@H](C)CO)C(=O)Cc2cc(NS(=O)(=O)c3ccccc3)ccc2O[C@@H]1CN(C)C(=O)NC1CCCCC1 ?
Vaccinia stage: 4; Vaccinia stage Venus: 4

Results for C[C@@H]1CN([C@H](C)CO)C(=O)c2cc(C#CCN(C)C)cnc2O[C@H]1CN(C)Cc1cccc(F)c1 ?
Vaccinia stage: -4; Vaccinia stage Venus: 12

How did COc1ccc(NC(=O)N(C)C[C@@H]2Oc3ncc(-c4ccc(F)cc4)cc3C(=O)N([C@H](C)CO)C[C@@H]2C)cc1 do in these assays?
Vaccinia stage: -7; Vaccinia stage Venus: -10

How did Cc1noc(C)c1S(=O)(=O)N(C)C[C@H]1OCCCC[C@@H](C)Oc2ccc(NC(=O)CCCCCC(=O)Nc3ccccc3N)cc2C(=O)N([C@@H](C)CO)C[C@@H]1C do in these assays?
Vaccinia stage: -6; Vaccinia stage Venus: 4

How did O=C(Nc1cc(F)ccc1F)N1CC(=O)N2[C@@H](CO)[C@H](c3ccc(-c4cccnc4)cc3)[C@@H]2C1 do in these assays?
Vaccinia stage: -2; Vaccinia stage Venus: -5

How did COc1cccc(C#Cc2ccc3c(c2)[C@@H]2[C@@H](CCN2C(=O)c2ccccc2F)[C@H](CO)N3)c1 do in these assays?
Vaccinia stage: 4; Vaccinia stage Venus: 14

How did O=C(NC[C@H]1N[C@H](CO)[C@@H]1c1ccc(-c2ccccc2F)cc1)c1ccccc1 do in these assays?
Vaccinia stage: -29; Vaccinia stage Venus: -10

How did O=C(Nc1ccc(F)cc1)N[C@@H]1C=C[C@@H](CC(=O)N2CCOCC2)O[C@H]1CO do in these assays?
Vaccinia stage: 18; Vaccinia stage Venus: 15

What do the screens show for `C[C@@H]1CN([C@@H](C)CO)C(=O)c2cc(C3=CCCC3)cnc2O[C@@H]1CN(C)C(=O)Nc1ccc(F)cc1`?
Vaccinia stage: -4; Vaccinia stage Venus: -6

What do the screens show for `CN(C)CC(=O)Nc1ccc2c(c1)[C@@H]1C[C@@H](CC(=O)N3CCN(C)CC3)O[C@H](CO)[C@@H]1O2`?
Vaccinia stage: 9; Vaccinia stage Venus: 8

Results for O=C(C[C@H]1C=C[C@H](NS(=O)(=O)c2ccccc2)[C@H](CO)O1)NCCN1CCCCC1 ?
Vaccinia stage: 6; Vaccinia stage Venus: 4

What do the screens show for `C[C@H]1CN([C@@H](C)CO)C(=O)c2cccc(NC(=O)NC3CCCCC3)c2O[C@@H]1CN(C)Cc1ccccc1`?
Vaccinia stage: -7; Vaccinia stage Venus: -3

What do the screens show for `C[C@@H]1CCCCO[C@H](CN(C)C(=O)CCC(F)(F)F)[C@@H](C)CN([C@H](C)CO)C(=O)c2cc(NC(=O)Cc3ccccc3)ccc2O1`?
Vaccinia stage: 10; Vaccinia stage Venus: 4

How did Cc1ccc(S(=O)(=O)Nc2ccc3c(c2)C(=O)N([C@H](C)CO)C[C@@H](C)[C@H](CN(C)C(=O)c2ccccc2)OCCCC[C@@H](C)O3)cc1 do in these assays?
Vaccinia stage: -25; Vaccinia stage Venus: -27

How did CC(C)NC(=O)N(C)C[C@@H]1OCCCC[C@@H](C)Oc2ccc(NC(=O)Nc3ccc(F)cc3)cc2C(=O)N([C@H](C)CO)C[C@H]1C do in these assays?
Vaccinia stage: -8; Vaccinia stage Venus: 3

What do the screens show for `CCCNC(=O)[C@H]1[C@H](CO)[C@H]2Cn3c(ccc(C4=CCCC4)c3=O)[C@@H]1N2C(=O)C1CC1`?
Vaccinia stage: -2; Vaccinia stage Venus: 2

Results for CC(=O)N1CCCCN2[C@H](CO)[C@H](c3ccc(-c4cccc(C)c4)cc3)[C@H]2C1 ?
Vaccinia stage: -2; Vaccinia stage Venus: -14

How did CCC(=O)Nc1ccc2c(c1)C(=O)N(C)C[C@H](OC)[C@H](C)CN(Cc1ccccc1F)[C@H](C)CO2 do in these assays?
Vaccinia stage: 1; Vaccinia stage Venus: 3

How did COc1ccc(CNC(=O)N(C)C[C@H]2OCc3ccccc3-c3c(n(C)c4ccccc34)C(=O)N([C@@H](C)CO)C[C@H]2C)cc1 do in these assays?
Vaccinia stage: inconclusive

How did C[C@H]1CN([C@@H](C)CO)C(=O)c2cc(NS(=O)(=O)c3cccs3)ccc2O[C@H]1CN(C)CC1CC1 do in these assays?
Vaccinia stage: 18; Vaccinia stage Venus: 14

Results for CN(C)CC(=O)N[C@H]1CC[C@H](CCn2cc(C3CCCCC3)nn2)O[C@@H]1CO ?
Vaccinia stage: -8; Vaccinia stage Venus: 2

Results for O=C(Nc1ccc2c(c1)[C@H]1C[C@@H](CC(=O)N3CCOCC3)O[C@H](CO)[C@H]1O2)c1cccnc1 ?
Vaccinia stage: 6; Vaccinia stage Venus: 5

How did C[C@H]1CN([C@@H](C)CO)C(=O)Cc2cc(N(C)C)ccc2O[C@H]1CN(C)C(=O)Nc1ccccc1 do in these assays?
Vaccinia stage: inconclusive

How did COc1ccccc1NC(=O)N(C)C[C@@H]1Oc2ncc(Br)cc2C(=O)N([C@H](C)CO)C[C@@H]1C do in these assays?
Vaccinia stage: -5&4; Vaccinia stage Venus: -4&5

Results for N#C[C@@H]1[C@H](c2ccc(-c3cccc(F)c3)cc2)[C@H](CO)N1C(=O)c1cccnc1 ?
Vaccinia stage: -33; Vaccinia stage Venus: -32

Results for C[C@@H]1CN([C@H](C)CO)C(=O)Cc2cc(NC(=O)C3CC3)ccc2O[C@@H]1CN(C)Cc1ccc(Oc2ccccc2)cc1 ?
Vaccinia stage: -26; Vaccinia stage Venus: -19

What do the screens show for `CN(C)C(=O)C[C@H]1CC[C@H](NC(=O)C2CCC2)[C@@H](CO)O1`?
Vaccinia stage: 7; Vaccinia stage Venus: -1

How did C[C@H]1CN([C@@H](C)CO)C(=O)c2cc(NC(=O)Cc3ccccc3)ccc2O[C@H]1CN(C)C(=O)Nc1ccccc1 do in these assays?
Vaccinia stage: 17; Vaccinia stage Venus: 11

What do the screens show for `CC(=O)N1[C@@H]2c3ccc(-c4cccnc4)c(=O)n3C[C@H]1[C@H](CO)[C@H]2C(=O)N1CCc2ccccc2C1`?
Vaccinia stage: 17; Vaccinia stage Venus: 10

How did CN1C(=O)c2cc(NC(=O)c3ccc(F)c(F)c3)ccc2OC[C@@H]2O[C@H](CC(=O)N[C@@H]3CCN(Cc4ccccc4)C3)CC[C@H]21 do in these assays?
Vaccinia stage: inconclusive

How did C[C@H](CO)N1C[C@H](C)[C@H](CN(C)S(=O)(=O)c2cn(C)cn2)Oc2ccc(NC(=O)Nc3ccc(F)cc3)cc2C1=O do in these assays?
Vaccinia stage: 2; Vaccinia stage Venus: 0

Results for Cc1noc(C)c1S(=O)(=O)N(C)C[C@H]1Oc2c(NS(C)(=O)=O)cccc2C(=O)N([C@@H](C)CO)C[C@H]1C ?
Vaccinia stage: 2; Vaccinia stage Venus: 2

Results for C[C@H]1CN([C@@H](C)CO)C(=O)c2cc(C3=CCCCC3)cnc2O[C@H]1CN(C)C(=O)CN1CCOCC1 ?
Vaccinia stage: 13; Vaccinia stage Venus: 6

What do the screens show for `O=C(c1ccccn1)N1CC(=O)N2[C@H](CO)[C@@H](c3ccc(-c4cccc(F)c4)cc3)[C@H]2C1`?
Vaccinia stage: -7; Vaccinia stage Venus: -11

Results for COc1ccccc1-c1ccc2c(c1)O[C@H](CN(C)C(=O)c1cccnc1)[C@H](C)CN([C@H](C)CO)S2(=O)=O ?
Vaccinia stage: 8; Vaccinia stage Venus: -11

How did O=C(C[C@H]1CC[C@@H](NC(=O)CCN2CCCCC2)[C@H](CO)O1)Nc1nccs1 do in these assays?
Vaccinia stage: 16; Vaccinia stage Venus: 14

What do the screens show for `C[C@H]1CN([C@@H](C)CO)C(=O)Cc2cc(NC(=O)Nc3ccc(C(F)(F)F)cc3)ccc2O[C@H]1CN(C)Cc1ccc(C(F)(F)F)cc1`?
Vaccinia stage: -32; Vaccinia stage Venus: -15

Results for C[C@H](CO)N1C[C@H](C)[C@@H](CN(C)S(=O)(=O)c2ccccc2)Oc2ccc(NC(=O)Cc3ccccc3)cc2CC1=O ?
Vaccinia stage: -3; Vaccinia stage Venus: -4

How did C[C@H]1CN([C@@H](C)CO)C(=O)c2cc(C#CC3(O)CCCC3)cnc2O[C@@H]1CN(C)S(=O)(=O)c1cccc(F)c1 do in these assays?
Vaccinia stage: 1; Vaccinia stage Venus: 1

Results for C[C@@H](NC(=O)[C@@H]1[C@@H](CO)[C@@H]2Cn3c(cccc3=O)[C@@H]2N1Cc1cccnc1)c1ccccc1 ?
Vaccinia stage: 12; Vaccinia stage Venus: 8

How did CN1C(=O)c2cc(NC(=O)c3ccccc3Cl)ccc2OC[C@@H]2O[C@@H](CC(=O)NCC(F)(F)F)CC[C@@H]21 do in these assays?
Vaccinia stage: 8; Vaccinia stage Venus: 15

How did COc1ccc(-c2ccc([C@H]3[C@H](CO)N4C(=O)CN(C(=O)C5CC5)C[C@@H]34)cc2)cc1 do in these assays?
Vaccinia stage: -21; Vaccinia stage Venus: -19

How did CN(C)C(=O)c1cccc(-c2ccc([C@H]3[C@H](CO)N4CCCCN(C(=O)C5CCC5)C[C@@H]34)cc2)c1 do in these assays?
Vaccinia stage: 4; Vaccinia stage Venus: -2

What do the screens show for `CN1C(=O)c2cc(NC(=O)NC3CCCC3)ccc2OC[C@H]2O[C@@H](CC(=O)O)CC[C@@H]21`?
Vaccinia stage: 0; Vaccinia stage Venus: 7

How did COc1ccc2c3c([nH]c2c1)[C@@H](CO)N(CC1CC1)CC31CCN(C(=O)Nc2cccc(F)c2)CC1 do in these assays?
Vaccinia stage: -15; Vaccinia stage Venus: -16

What do the screens show for `CC(C)CC#Cc1cnc2c(c1)C(=O)N([C@H](C)CO)C[C@H](C)[C@@H](CN(C)Cc1cccc(F)c1)O2`?
Vaccinia stage: inconclusive

Results for O=C(NCc1ccc(F)cc1)[C@H]1[C@H](CO)[C@H]2Cn3c(cccc3=O)[C@@H]1N2Cc1cccnc1 ?
Vaccinia stage: 14; Vaccinia stage Venus: 11

What do the screens show for `Cc1noc(C)c1NC(=O)Nc1ccc2c(c1)C(=O)N([C@@H](C)CO)C[C@@H](C)[C@@H](CN(C)Cc1ccccc1)OCCCC[C@@H](C)O2`?
Vaccinia stage: 2; Vaccinia stage Venus: -7

How did CC(C)NC(=O)N(C)C[C@H]1Oc2ccc(NC(=O)c3ccncc3)cc2C(=O)N([C@H](C)CO)C[C@@H]1C do in these assays?
Vaccinia stage: 0; Vaccinia stage Venus: -5

How did COCC#Cc1cnc2c(c1)C(=O)N([C@H](C)CO)C[C@H](C)[C@H](CN(C)C(=O)Nc1ccccc1OC)O2 do in these assays?
Vaccinia stage: 3; Vaccinia stage Venus: 0

Results for CC(C)CC#Cc1ccc([C@@H]2[C@H]3CN(S(=O)(=O)Cc4ccccc4)CCCCN3[C@H]2CO)cc1 ?
Vaccinia stage: -13; Vaccinia stage Venus: -14

What do the screens show for `CC(C)NC(=O)Nc1ccc2c(c1)C(=O)N([C@@H](C)CO)C[C@@H](C)[C@@H](CN(C)C(=O)Nc1ccccc1)O2`?
Vaccinia stage: 21; Vaccinia stage Venus: 22

Results for COCC(=O)Nc1ccc2c(c1)[C@@H]1C[C@@H](CC(=O)NCc3ccccc3F)O[C@@H](CO)[C@@H]1O2 ?
Vaccinia stage: -2; Vaccinia stage Venus: 2

Arranged by heavy-atom count (low to high): part of the list above
How did O=C(C[C@H]1CC[C@@H](NC(=O)CCN2CCCCC2)[C@H](CO)O1)Nc1nccs1 do in these assays?
Vaccinia stage: 16; Vaccinia stage Venus: 14

How did COc1ccc2c3c([nH]c2c1)[C@@H](CO)N(CC1CC1)CC31CCN(C(=O)Nc2cccc(F)c2)CC1 do in these assays?
Vaccinia stage: -15; Vaccinia stage Venus: -16

How did CN1C(=O)c2cc(NC(=O)c3ccccc3Cl)ccc2OC[C@@H]2O[C@@H](CC(=O)NCC(F)(F)F)CC[C@@H]21 do in these assays?
Vaccinia stage: 8; Vaccinia stage Venus: 15

A portion of the library (hit frequency here may not be typical).
